Source: PubChem (Broad Institute)
UUG fidelity – modulators of yeast start codon fidelity, primary screen, whole organism, S. cerevisiae, single point, plate reader | S. cerevisiae UUG-firefly luciferase reporter, luminescence/redox ratio | activity score, % at 18.7 µM | 0.13% of 350,000 active | AID 602363, 2012;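 active means replicate mean at a twofold rise or more, about +100% in these data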;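 further: firefly luciferase made from a UUG start codon reports start codon fidelity; reporter light over untreated wells divided by growth signal over untreated wells; some hits fall short of that in this replicate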
Env fusion inh – inhibitors of HIV-1 Env-driven cell-cell fusion, primary screen, HeLa-JRFL effector, CEM21 target cells, luciferase. 1.1% of 360,000 active. inhibition, % at 12.3 µM;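 active means mean replicate inhibition score of at least 50 and every replicate individually at or above 50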;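 further: 0% = plate neutral controls and 100% = maraviroc near 300 nM; one replicate is shown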
* hit, by the source's call; [ ] = another dose, or the depositor's remark. An excerpt. The share of hits here may be higher or lower than overall.

SMILES	UUG fidelity	Env fusion inh
O=C(C[C@H]1C[C@@H]2c3cc(NC(=O)C4CCC4)ccc3O[C@@H]2[C@@H](CO)O1)NCc1ccc(Cl)cc1	0	20[16.7 µM]
CCNC(=O)C[C@@H]1CC[C@@H]2[C@@H](COc3ccc(NC(=O)Nc4ccc(Cl)cc4)cc3C(=O)N2C)O1	8	12[16.7 µM]
Cc1noc(C)c1NC(=O)N1C[C@@H](O)COC[C@@H]2O[C@@H](CC(=O)N3CCc4ccccc4C3)CC[C@H]21	21	2[16.7 µM]
C[C@@H]1CCCCO[C@@H](CN(C)C(=O)CCC(F)(F)F)[C@@H](C)CN([C@H](C)CO)C(=O)c2cc(NC(=O)CCCN(C)C)ccc2O1	3	5[16.7 µM]
O=S(=O)(N[C@H]1CC[C@H](CCn2cc(-c3ccccc3F)nn2)O[C@H]1CO)c1ccc(F)cc1	-22	5[16.7 µM]
CCCNC(=O)N(C)C[C@@H]1Oc2cc(C3=CCCCC3)ccc2S(=O)(=O)N([C@@H](C)CO)C[C@@H]1C	1	-154[16.7 µM]
C[C@H](CO)N1C[C@H](C)[C@@H](CN(C)C(=O)CCN2CCCCC2)Oc2ncc(C#CCN(C)C)cc2C1=O	-8	4[16.7 µM]
Cc1noc(C)c1S(=O)(=O)N(C)C[C@H]1OCCCC[C@H](C)Oc2ccc(NC(=O)Nc3ccc(C(F)(F)F)cc3)cc2C(=O)N([C@H](C)CO)C[C@@H]1C	-21	47[16.7 µM]
Cc1ccc(S(=O)(=O)Nc2cccc3c2O[C@H](CN(C)S(=O)(=O)c2ccccc2)[C@@H](C)CN([C@H](C)CO)C3=O)cc1	-2	-34[16.7 µM]
COc1cccc(NC(=O)C[C@H]2CC[C@H]3[C@H](COc4ccc(NC(=O)C5CCCCC5)cc4C(=O)N3C)O2)c1	1	25[16.7 µM]
C[C@@H]1CCCCO[C@@H](CN(C)CC2CCCCC2)[C@@H](C)CN([C@H](C)CO)C(=O)c2cc(NC(=O)Nc3ccccc3)ccc2O1	11	8[16.7 µM]
Cc1noc(C)c1S(=O)(=O)Nc1ccc2c(c1)C(=O)N([C@H](C)CO)C[C@H](C)[C@@H](CN(C)C(=O)Nc1ccccc1)OCCCC[C@@H](C)O2	-6	-38[16.7 µM]
CN(C)CCCNC(=O)C[C@H]1CC[C@@H]2[C@H](COc3ccc(NC(=O)c4ccc5c(c4)OCO5)cc3C(=O)N2C)O1	-2	-5[16.7 µM]
CC(=O)N(C)C[C@@H]1Oc2ncc(C#C[C@H](C)O)cc2C(=O)N([C@@H](C)CO)C[C@H]1C	-11	-7[16.7 µM]
CNC[C@H]1Oc2cc(C#Cc3ccc(F)cc3)ccc2S(=O)(=O)N([C@@H](C)CO)C[C@@H]1C	5	-7[16.7 µM]
CNC[C@H]1Oc2ncc(C#CCC3CCCC3)cc2C(=O)N([C@@H](C)CO)C[C@H]1C	5	24[16.7 µM]
Cc1ccc(S(=O)(=O)Nc2cccc3c2O[C@H](CN(C)S(=O)(=O)c2cn(C)cn2)[C@@H](C)CN([C@H](C)CO)C3=O)cc1	6	4[16.7 µM]
C[C@@H]1CCCCO[C@H](CN(C)C)[C@H](C)CN([C@@H](C)CO)C(=O)c2cc(NC(=O)Cc3ccccc3)ccc2O1	9	-8[16.7 µM]
CCC(=O)Nc1ccc2c(c1)OC[C@@H](C)N(Cc1ccccc1F)C[C@H](C)[C@H](OC)CN(C)C2=O	-9	-12[16.7 µM]
NCC[C@@H]1CC[C@@H](NC(=O)Nc2ccc(F)cc2)[C@H](CO)O1	7	-8[16.7 µM]
C[C@@H]1CN([C@@H](C)CO)C(=O)Cc2cc(NC(=O)C3CCCCC3)ccc2O[C@H]1CN(C)C	9	10[16.7 µM]
C[C@H]1CN([C@@H](C)CO)C(=O)c2cc(C#CC3CCCC3)cnc2O[C@@H]1CN(C)C(=O)Cc1ccccn1	65	-12[16.7 µM]
O=C(NC1CCCC1)N[C@@H]1C=C[C@@H](CC(=O)N2CCOCC2)O[C@H]1CO	-12	-43[16.7 µM]
C[C@@H]1CN([C@H](C)CO)C(=O)c2cc(C#Cc3ccc(F)cc3)cnc2O[C@H]1CN(C)CC1CCOCC1	24	15[16.7 µM]
C[C@@H]1CCCCO[C@H](CN(C)Cc2ccc3c(c2)OCO3)[C@H](C)CN([C@H](C)CO)C(=O)c2cc(NC(=O)Nc3ccccc3)ccc2O1	53	9[16.7 µM]

Quoted at random: five records from the list.
SMILES	UUG fidelity	Env fusion inh
C[C@H](CO)N1C[C@H](C)[C@@H](CN(C)C(=O)CCN2CCCCC2)Oc2ncc(C#CCN(C)C)cc2C1=O	-8	4[16.7 µM]
Cc1ccc(S(=O)(=O)Nc2cccc3c2O[C@H](CN(C)S(=O)(=O)c2ccccc2)[C@@H](C)CN([C@H](C)CO)C3=O)cc1	-2	-34[16.7 µM]
C[C@@H]1CCCCO[C@H](CN(C)C)[C@H](C)CN([C@@H](C)CO)C(=O)c2cc(NC(=O)Cc3ccccc3)ccc2O1	9	-8[16.7 µM]
O=S(=O)(N[C@H]1CC[C@H](CCn2cc(-c3ccccc3F)nn2)O[C@H]1CO)c1ccc(F)cc1	-22	5[16.7 µM]
C[C@@H]1CCCCO[C@H](CN(C)Cc2ccc3c(c2)OCO3)[C@H](C)CN([C@H](C)CO)C(=O)c2cc(NC(=O)Nc3ccccc3)ccc2O1	53	9[16.7 µM]

Profiles, quoted from the list.
Listed for C[C@@H]1CCCCO[C@@H](CN(C)CC2CCCCC2)[C@@H](C)CN([C@H](C)CO)C(=O)c2cc(NC(=O)Nc3ccccc3)ccc2O1 = UUG fidelity: 11; Env fusion inh: 8[16.7 µM]
Listed for C[C@H](CO)N1C[C@H](C)[C@@H](CN(C)C(=O)CCN2CCCCC2)Oc2ncc(C#CCN(C)C)cc2C1=O = UUG fidelity: -8; Env fusion inh: 4[16.7 µM]

Continuation:
SMILES	UUG fidelity	Env fusion inh
COc1ccc(S(=O)(=O)N(C)C[C@H]2Oc3c(NC(=O)Nc4ccc5c(c4)OCO5)cccc3C(=O)N([C@H](C)CO)C[C@H]2C)cc1	-6	-1[16.7 µM]
C[C@@H]1CN([C@@H](C)CO)C(=O)c2cc(NC(=O)Cc3ccccc3)ccc2O[C@H]1CN(C)S(=O)(=O)c1ccccc1	0	25[16.7 µM]
COCCNC(=O)C[C@H]1C[C@H]2c3cc(NC(=O)C4CCC4)ccc3O[C@H]2[C@@H](CO)O1	-7	-13[16.7 µM]
C[C@@H]1CN([C@@H](C)CO)C(=O)c2cc(NC(=O)c3ccccc3)ccc2O[C@@H](C)CCCCO[C@H]1CN(C)C(=O)Cc1ccccc1	19	1[16.7 µM]
COCC(=O)N(C)C[C@@H]1Oc2ncc(C#Cc3ccccc3OC)cc2C(=O)N([C@H](C)CO)C[C@H]1C	9	0[16.7 µM]
O=C(N[C@H]1C=C[C@H](CC(=O)N2CCOCC2)O[C@@H]1CO)c1ccc2c(c1)OCO2	-9	15[16.7 µM]
C[C@@H]1CCCCO[C@@H](CN(C)C(=O)Nc2ccc3c(c2)OCO3)[C@@H](C)CN([C@H](C)CO)C(=O)c2cc(NC(=O)Nc3ccc(C(F)(F)F)cc3)ccc2O1	-19	-3[16.7 µM]
C[C@H](CO)N1C[C@H](C)[C@@H](CN(C)CC2CCOCC2)Oc2cc(C#CC3CC3)ccc2S1(=O)=O	12	19[16.7 µM]
C[C@@H]1CN([C@H](C)CO)C(=O)c2cc(NC(=O)Nc3ccc(F)cc3)ccc2O[C@H]1CN(C)S(=O)(=O)c1ccc(Cl)cc1	-4	17[16.7 µM]
CCCN1C[C@H](C)[C@H](OC)CN(C)C(=O)c2ccc(NC(=O)COC)cc2OC[C@@H]1C	-2	3[16.7 µM]
COc1ccccc1CNC(=O)C[C@H]1CC[C@@H](NC(=O)CC2CC2)[C@@H](CO)O1	-22	-18[16.7 µM]
C[C@@H]1CCCCO[C@@H](CN(C)C(=O)Nc2ccccc2)[C@H](C)CN([C@H](C)CO)C(=O)c2cc(NS(=O)(=O)c3ccc(F)cc3)ccc2O1	-5	-121[16.7 µM]
C[C@@H]1CCCCO[C@H](CN(C)Cc2ccc(C(F)(F)F)cc2)[C@H](C)CN([C@H](C)CO)C(=O)c2cc(NC(=O)Nc3ccc4c(c3)OCO4)ccc2O1	31	39[16.7 µM]
COc1ccc(CN(C)C[C@@H]2OCCCC[C@H](C)Oc3ccc(NS(=O)(=O)c4cccs4)cc3C(=O)N([C@@H](C)CO)C[C@H]2C)cc1	10	27[16.7 µM]
C[C@H]1CN([C@@H](C)CO)C(=O)c2cc(C#CC3CCCC3)cnc2O[C@H]1CN(C)C(=O)c1ccncc1	-9	23[16.7 µM]
CC(C)NC(=O)N(C)C[C@@H]1Oc2ncc(-c3cc4ccccc4o3)cc2C(=O)N([C@H](C)CO)C[C@@H]1C	10	15[16.7 µM]
O=C(C[C@H]1C=C[C@H](NC(=O)CCN2CCCCC2)[C@@H](CO)O1)Nc1ccc(-c2ccccc2)cc1	4	3[16.7 µM]
COc1ccc(C#Cc2cnc3c(c2)C(=O)N([C@H](C)CO)C[C@H](C)[C@H](CN(C)S(=O)(=O)c2ccc(C)cc2)O3)cc1OC	-3	-1[16.7 µM]
Cc1ccc(S(=O)(=O)N(C)C[C@@H]2OCCCC[C@H](C)Oc3ccc(NC(=O)Nc4cccc5ccccc45)cc3C(=O)N([C@@H](C)CO)C[C@H]2C)cc1	-12	-8[16.7 µM]
C[C@@H]1CN([C@H](C)CO)C(=O)Cc2cc(NS(=O)(=O)c3ccc(Cl)cc3)ccc2O[C@@H]1CN(C)S(=O)(=O)c1cccs1	-3	-5[16.7 µM]
C[C@@H]1CN([C@H](C)CO)C(=O)c2cc(C#Cc3ccccn3)cnc2O[C@@H]1CN(C)C(=O)c1cnccn1	4	-8[16.7 µM]
C[C@@H]1CN([C@H](C)CO)C(=O)Cc2cc(NS(=O)(=O)c3cccs3)ccc2O[C@H]1CN(C)S(=O)(=O)c1ccc(F)cc1	-2	-8[16.7 µM]
C[C@H]1CN([C@@H](C)CO)C(=O)c2cc(NS(C)(=O)=O)ccc2O[C@@H]1CN(C)S(=O)(=O)c1ccc(Cl)cc1	-9	3[16.7 µM]
CC(C)C#Cc1cnc2c(c1)C(=O)N([C@H](C)CO)C[C@@H](C)[C@@H](CN(C)S(=O)(=O)c1cn(C)cn1)O2	13	-20[16.7 µM]
C[C@@H]1CCCCO[C@@H](CN(C)Cc2ccc(C(F)(F)F)cc2)[C@@H](C)CN([C@H](C)CO)C(=O)c2cc(NC(=O)C3CCCCC3)ccc2O1	-1	14[16.7 µM]

Additional compounds follow.
SMILES	UUG fidelity	Env fusion inh
COc1ccc(NC(=O)N(C)C[C@@H]2Oc3ccc(NC(=O)Cc4cn(C)c5ccccc45)cc3C(=O)N([C@@H](C)CO)C[C@@H]2C)cc1	15	-19[16.7 µM]
O=C(C[C@H]1CC[C@@H](NC(=O)NC2CCCCC2)[C@@H](CO)O1)NCc1ccc(Cl)cc1	14	5[16.7 µM]
CC(C)C#Cc1cnc2c(c1)C(=O)N([C@@H](C)CO)C[C@H](C)[C@H](CN(C)C(=O)c1ccccc1)O2	0	-13[16.7 µM]
C[C@H](CO)N1C[C@H](C)[C@H](CN(C)CC2CCCCC2)Oc2c(NC(=O)C3CCOCC3)cccc2C1=O	3	3[16.7 µM]
CCC(=O)N(C)C[C@H]1Oc2ncc(-c3cccc(OC)c3)cc2C(=O)N([C@H](C)CO)C[C@H]1C	5	4[16.7 µM]
CC(C)CC#Cc1ccc2c(c1)O[C@H](CN(C)C(=O)Cc1ccccc1)[C@@H](C)CN([C@H](C)CO)S2(=O)=O	37	-33[16.7 µM]
COc1ccc(NC(=O)Nc2ccc3c(c2)CC(=O)N([C@@H](C)CO)C[C@H](C)[C@H](CN(C)C(=O)NC2CCCCC2)O3)cc1	-10	17[16.7 µM]
COc1ccccc1NC(=O)N1C[C@H](O)COC[C@H]2O[C@@H](CC(=O)NCCc3ccncc3)CC[C@@H]21	-9	-5[16.7 µM]
CO[C@H]1CN(C)C(=O)c2cc(NC(C)=O)ccc2OC[C@@H](C)N(C(=O)c2ccccc2)C[C@H]1C	-1	-8[16.7 µM]
C[C@H]1CN([C@@H](C)CO)S(=O)(=O)c2ccc(C#CC3CC3)cc2O[C@H]1CN(C)C(=O)c1cnccn1	7	9[16.7 µM]
C[C@@H]1CN([C@@H](C)CO)C(=O)c2cc(C#CC3CC3)cnc2O[C@H]1CN(C)Cc1ccccn1	-18	-19[16.7 µM]
C[C@@H](O)C#Cc1cnc2c(c1)C(=O)N([C@@H](C)CO)C[C@H](C)[C@H](CN(C)C(=O)c1ccc(F)cc1)O2	6	2[16.7 µM]
C[C@H]1CN([C@@H](C)CO)C(=O)c2cc(C#Cc3cccc(F)c3)cnc2O[C@H]1CN(C)CC1CCOCC1	8	-6[16.7 µM]
Cc1noc(C)c1S(=O)(=O)N(C)C[C@@H]1Oc2ccc(NC(=O)Nc3cccc4ccccc34)cc2CC(=O)N([C@H](C)CO)C[C@@H]1C	-17	79*[16.7 µM]
CCNC(=O)C[C@H]1CC[C@H](NC(=O)C2CCC2)[C@@H](CO)O1	19	-5[16.7 µM]
C[C@H]1CN([C@@H](C)CO)C(=O)c2cc(N(C)C)ccc2O[C@@H]1CN(C)CC1CCCCC1	8	-21[16.7 µM]
CC(C)NC(=O)Nc1ccc2c(c1)C(=O)N([C@@H](C)CO)C[C@@H](C)[C@@H](CN(C)C(=O)C1CCCCC1)OCCCC[C@H](C)O2	22	11[16.7 µM]
COCC#Cc1cnc2c(c1)C(=O)N([C@H](C)CO)C[C@@H](C)[C@H](CN(C)Cc1ccc(-c3ccccc3)cc1)O2	10	20[16.7 µM]
COc1cccc(-c2ccc3c(c2)O[C@H](CN(C)C)[C@H](C)CN([C@H](C)CO)S3(=O)=O)c1	1	5[16.7 µM]
C[C@@H]1CN([C@@H](C)CO)S(=O)(=O)c2ccc(-c3cncnc3)cc2O[C@H]1CN(C)C(=O)C1CCC1	-7	7[16.7 µM]
